# Screens: PubChem BioAssay, National Center for Advancing Translational Sciences (NCATS)
# a7 integrin act: integrin-mediated muscular dystrophy alleviation activation; alpha7betagal myoblasts, beta-gal FDG fluorescence, 48 h; Potency, µM (highest dose often 38.3 µM), without a hit: at the top dose activation, most hits filed as activators; hit rate 0.064% among 350,000; AID 624291;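 further: potency means the concentration at half of the fitted maximal effect; 100% = response of the positive control SU9516; nearly all actives have a fitted effect of over 60% in size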
#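 Alpha7betagal+/- myoblasts (passage 13) were plated 16-24 hr, then exposed to compounds (1:260 dilution of DMSO stock) for 48 hours at 37C. After MPER lysis, β-galactosidase reporter activity was read as FDG fluorescence (ex 480/em 540) after 30 minutes.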
# AT treatment: potential ataxia-telangiectasia treatment. […] A-T fibroblasts, KAP-1 phosphorylation AlphaLISA; neocarzinostatin DNA damage 30 min before lysis. Potency, µM (doses to about 57.5 µM), without a hit: top-dose activation, usual class: activators. hit rate 0.19% among 320,000. AID 485349; further: potency means the concentration at half of the fitted maximal effect; % of control where 0% means no effect; nearly all actives have a fitted effect of over 45% in size
#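 hTERT-immortalized A-T patient fibroblasts ([…]), 500 cells/well in OPTI-MEM, 1% FBS, got compounds for 60 min, then NCS for 30 min at 37C. Lysates were then assayed for phospho-KAP-1 by AlphaLISA (anti-pKAP1 donor, anti-KAP1 acceptor beads), 6 hr at 25C.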
# GALK inhibitor: blocks human galactokinase activity; P51570; Purified GALK, Kinase-Glo residual ATP luminescence; Potency, µM (doses to about 57.5 µM), inactives show top-dose activity change, negative = inhibition, hits mostly inhibitors; hit rate 0.007% among 270,000; AID 1868; further: potency means the concentration at half of the fitted maximal effect; on the % scale 0 is the no-effect control and ±100 the full control effect
#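 Compounds were pin-transferred into ATP buffer (35 uM final), then GALK plus galactose (5 nM, 100 uM final) was added. After 1 h at room temperature, Kinase-Glo Plus was added and luminescence read after 10 min.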
# S-ASM inh: human S-ASM enzyme inhibition | hit rate 0.006% among 340,000 | Potency, µM (highest dose often 57.5 µM), for inactives: at the highest dose activity change, negative = inhibition, usual class: inhibitors | AID 504937 | P17405 | placental ASM, HMU-PC fluorogenic substrate, 60 min; further: potency means the concentration at half of the fitted maximal effect
#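 Fluorogenic HMU-PC substrate (9 uM final) is turned over by placental ASM in 60 min at 37 C after a 10 min compound preincubation. Reaction ended by alkaline stop (pH 10), with fluorescence read at 386/447 nm.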
# MBNL1-CUG inh: blocks human MBNL1 binding to CUG repeat RNA; Q9NR56; AID 2675; hit rate 0.036% among 280,000; Potency, µM (highest dose often 57.5 µM), inactives show top-dose activity change, negative = inhibition, usual class: inhibitors; TR-FRET MBNL1-His/biotin-(CUG)12 binding, 665/545 ratio; active means well fitted inhibition curve with a large enough effect in the signal ratio, with a control signal flat, not every such curve was filed as active; inconclusive means small, poorly fitted or top-dose-only effect, or effect the other way, or a change in a side signal; inactive means no such curve, though single readings can be large or run the other way; the % refers to the signal ratio; further: potency means the concentration at half of the fitted maximal effect; on the % scale 0 is the no-effect control and ±100 the full control effect
#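 His-tagged MBNL1 binding to biotinylated (CUG)12 RNA was measured by TR-FRET using terbium anti-His antibody (0.055 ng/ul final) and streptavidin-XL665 (5 nM final). Compounds were titrated 92 nM to 58 uM; 60 min at room temperature.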
# MLL CXXC-DNA inh: inhibitors of human MLL CXXC domain-DNA interaction; hit rate 0.037% among 290,000; AID 2662; Potency, µM (top dose mostly 115 µM), for inactives: at the top dose activity change, negative = inhibition, hits mostly inhibitors; MLL-CXXC / FITC-HOXA9 DNA fluorescence polarization; active means well fitted inhibition curve with a large enough effect in the polarisation, with a control signal flat, not every such curve was filed as active; inconclusive means small, poorly fitted or top-dose-only effect, or effect the other way, or a change in a side signal; inactive means no such curve, though single readings can be large or run the other way; the % refers to the polarisation; further: potency means the concentration at half of the fitted maximal effect
#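 Purified MLL-CXXC (added from a 7 uM solution) was preincubated 5 min at ambient with pinned compounds in 50 mM Tris-HCl pH 7.5, 50 mM NaCl, 1 mM DTT, 0.05% BSA. Fluorescein-labeled HOX-A9 DNA (50 nM solution) followed, 30 min, then polarization read.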
# FBPA coupling cs: inhibits coupling enzyme system, counter-screen for aldolase hits | coupling enzyme system counterscreen, AmpLite Red fluorescence | activity change, negative = inhibition, % at 58.2 µM, hits read low | hit rate 0.67% among 290,000 | AID 2472; in the data active means activity change below about -30%; further: on the % scale 0 is the no-effect control and ±100 the full control effect
#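 First, compound is pin-transferred into glyceraldehyde-3-phosphate coupling-enzyme reagent at 57.5 uM final and held 10 min at RT. Next, substrate, coupling system and AmpLite Red are added. After 20 min RT, fluorescence (525/598 nm) is read.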
# TRPV1 agonist: human TRPV1 agonism; Q8NER1; TRPV1-expressing cells, Fluo-8 calcium influx, agonist mode; activation, % at 8.33 µM; hit rate 0.19% among 320,000; AID 540275; in the data active means activation above about 80%; inconclusive means between about 30% and that limit; further: 0% is about no effect
# Target sequence (Q8NER1 whole entry, looked up): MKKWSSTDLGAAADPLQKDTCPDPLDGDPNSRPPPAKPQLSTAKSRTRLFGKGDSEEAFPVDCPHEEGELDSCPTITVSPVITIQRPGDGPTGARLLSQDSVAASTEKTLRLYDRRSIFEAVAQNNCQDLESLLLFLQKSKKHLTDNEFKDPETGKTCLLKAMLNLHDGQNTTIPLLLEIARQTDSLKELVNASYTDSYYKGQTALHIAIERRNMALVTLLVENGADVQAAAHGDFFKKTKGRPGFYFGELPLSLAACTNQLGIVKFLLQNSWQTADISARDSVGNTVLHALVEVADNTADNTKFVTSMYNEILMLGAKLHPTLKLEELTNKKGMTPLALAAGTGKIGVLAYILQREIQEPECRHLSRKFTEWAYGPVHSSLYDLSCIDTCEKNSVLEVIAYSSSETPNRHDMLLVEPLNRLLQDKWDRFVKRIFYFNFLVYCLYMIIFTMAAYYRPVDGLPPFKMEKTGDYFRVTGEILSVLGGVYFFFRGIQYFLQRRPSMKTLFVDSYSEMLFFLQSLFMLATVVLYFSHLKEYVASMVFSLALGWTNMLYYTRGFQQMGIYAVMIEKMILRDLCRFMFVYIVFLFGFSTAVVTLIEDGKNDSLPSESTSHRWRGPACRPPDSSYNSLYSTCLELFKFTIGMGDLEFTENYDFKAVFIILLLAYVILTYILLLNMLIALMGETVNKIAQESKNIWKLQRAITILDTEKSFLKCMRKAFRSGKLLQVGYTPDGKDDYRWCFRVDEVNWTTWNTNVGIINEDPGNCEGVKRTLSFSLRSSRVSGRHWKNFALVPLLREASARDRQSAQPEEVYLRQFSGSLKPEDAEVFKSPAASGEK
#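 Fluo-8 calcium influx in TRPV1-expressing cells, kinetic read (ex 480/em 520 nm). Compound added and read 3 min for agonist activity, followed by capsaicin at EC20 final and 2 min further read for enhancement.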
# An asterisk follows results filed as active; ? = inconclusive; . = no result given; & = joins results of further samples; [ ] = remark or other dose. Unless noted, the call rests on the fitted dose curve; in most records, active means well fitted curve in the direction sought with a large enough effect; inconclusive means small, poorly fitted or top-dose-only effect, or another doubt; inactive means no such curve, though single readings can be large; an effect the other way counts as inactive or inconclusive.
item	compound	FBPA coupling cs	MLL CXXC-DNA inh	MBNL1-CUG inh	AT treatment
1	Cc1sc2c(c1C)CN(C(C)(C)C)CN2C(=O)c1ccccc1	3	.	11%	.
2	CN(C)CC[C@@H](c1ccc(Br)cc1)c1ccccn1	.	-6%&-1%	.	.
3	CC12CCC(C(=O)N(CC(O)CN3CCCCC3)C1=O)C2(C)C (stereo not given)	3	0%	-9%	.
4	CCC1(c2ccc(F)cc2)NC(=O)N(CC(=O)Nc2cc(S(=O)(=O)N(C)C)ccc2Cl)C1=O (stereo not given)	2	29%	-2%	-4%
5	CCCCOC(=O)C1=C(C)Nc2nnnn2C1c1ccc(OC)c(OC)c1OC (stereo not given)	-7	-3%	-1%	9%
6	CCOc1ccc(N(CC(=O)NCCOc2ccc(C)cc2)S(=O)(=O)c2ccccc2)cc1	2	10%	-7%	-1%
7	NC(=O)C1CCCCc2c1[nH]c1ccc(Cl)cc21 (stereo not given)	0	-20%	2%	2%
8	CC(=O)Nc1ccc(CN2CCCC(CO)(Cc3ccccc3C)C2)cc1 (stereo not given)	1	.	-4%	14%
9	c1ccc(CN2CCN(Cc3nnc(-c4ccccc4)o3)CC2)cc1	3	3%	.	0%
10	COc1ccc2[nH]cc(CCNC(C)=O)c2c1	0&1&1	7%	.	.

item	TRPV1 agonist	S-ASM inh	GALK inhibitor	a7 integrin act
1	24	-2%	1%	-8%
2	.	5%	.	.
3	14	-1%	0%	7%
4	1	0%	2%	-32%
5	3	30%	-3%	16%
6	23	-9%	2%	-8%
7	2	-2%	1%	3%
8	-4	2%	2%	0%
9	0	1%	3%	-14%
10	.	-3%	.	.

# Sorted by number of heavy atoms (highest first): part of the list above.
item	compound	FBPA coupling cs	MLL CXXC-DNA inh	MBNL1-CUG inh	AT treatment
4	CCC1(c2ccc(F)cc2)NC(=O)N(CC(=O)Nc2cc(S(=O)(=O)N(C)C)ccc2Cl)C1=O (stereo not given)	2	29%	-2%	-4%
2	CN(C)CC[C@@H](c1ccc(Br)cc1)c1ccccn1	.	-6%&-1%	.	.
7	NC(=O)C1CCCCc2c1[nH]c1ccc(Cl)cc21 (stereo not given)	0	-20%	2%	2%
10	COc1ccc2[nH]cc(CCNC(C)=O)c2c1	0&1&1	7%	.	.

item	TRPV1 agonist	S-ASM inh	GALK inhibitor	a7 integrin act
4	1	0%	2%	-32%
2	.	5%	.	.
7	2	-2%	1%	3%
10	.	-3%	.	.

# (list continues)
item	compound	FBPA coupling cs	MLL CXXC-DNA inh	MBNL1-CUG inh	AT treatment
11	CC1CCCC(C)N1C(=S)NCc1ccco1 (stereo not given)	-1	74%[activator]	-2%	-5%
12	CC1(C)S[C@H]2C(NC(=O)[C@@H](N)c3ccc(O)cc3)C(=O)N2[C@@H]1C(=O)O (stereo not given in full)	3	-3%	.	.
13	Cc1cccc(CS(=O)(=O)Cc2ccc(C(=O)NC3CCCCCC3)o2)c1	.	1%	1%	-5%
14	CCc1ccc(-n2cccc2/C=C2/C(=N)N3C(=NC2=O)SN=C3S(C)(=O)=O)cc1	13	.	7%	-7%
15	COc1ccc(OC(=O)CCc2c[nH]c3ccccc23)cc1	1	.	.	0%
16	Cc1cccc(NS(=O)(=O)c2ccc(C(=O)N3CCCCCC3)cc2)c1C	.	.	.	-13%
17	C[C@@]12CCC3c4ccc(O)cc4CCC3C1CCC2O (stereo not given in full)	3	.	.	.
18	CCN1CCC[C@H]1CNC(=O)c1c(OC)ccc(Br)c1OC	1&5	1%	.	0%
19	COCCOC(=O)C1=C(C)NC(C)=C(C(=O)OC(C)C)[C@H]1c1cccc([N+](=O)[O-])c1	2	.	.	.
20	COc1ccc(C(=O)Sc2nncc3ccccc23)cc1	0	208%[activator]	7%	-19%

item	TRPV1 agonist	S-ASM inh	GALK inhibitor	a7 integrin act
11	9	1%	-3%	-14%
12	.	.	.	.
13	0	4%	-6%	-26%
14	0	8%	-15%	-14%
15	6	0%	0%	10%
16	-2	4%	.	23%
17	.	.	.	.
18	1	1%	.	.
19	.	.	.	.
20	10	-1%	8%	?

# Following part:
item	compound	FBPA coupling cs	MLL CXXC-DNA inh	MBNL1-CUG inh	AT treatment
21	O=C(Nc1nc2cc3c(cc2s1)OCCO3)c1ccncc1	-4	4%	1%	-1%
22	COc1ccccc1Nc1ccc(NS(=O)(=O)c2ccc(C(C)=O)cc2)cc1	-2	.	-3%	-4%
23	N[C@@H](Cc1ccc(F)cc1)C(=O)O	.	8%	.	.
24	Cc1nc2ccc(Cl)cc2n1C	.	.	.	.
25	Clc1ccc(-c2nnc(COc3ncnc4ccccc34)o2)cc1	-1	-3%	-1%	2%
26	CC(C)NCC(O)c1cc(O)cc(O)c1 (stereo not given)	-3&-24	1%&0%	0%	38%
27	O=C(NCC1CCN(Cc2cccc(Cl)c2)CC1)Nc1ccccc1Cl	0	3%	-2%	11%
28	CC(C)Oc1ccc2c(=O)c(-c3ccccc3)coc2c1	0&4&2	1%&2%	?	14%
29	CCCCc1nc(Cl)c(CO)n1Cc1ccc(-c2ccccc2-c2nnn[nH]2)cc1	.	.	.	.
30	C=CCn1c(C(CC)CC(C)(C)O)n[nH]c1=S (stereo not given)	3	-1%	1%	-1%

item	TRPV1 agonist	S-ASM inh	GALK inhibitor	a7 integrin act
21	?	-3%	10%	-9%
22	-7	-14%	0%	-18%
23	.	4%	.	.
24	.	.	.	5%
25	7	2%	0%	4%
26	-4	5%	-2%	.
27	24	-3%	.	-62%[inhibitor]
28	27&29	3%	-1%&1%	.
29	.	3%	.	.
30	0	8%	0%	12%

# Continued:
item	compound	FBPA coupling cs	MLL CXXC-DNA inh	MBNL1-CUG inh	AT treatment
31	CN(C)C(=O)Oc1ccc[n+](C)c1	-3&3	8%&-4%&0%	-7%	-9%
32	C/C(CC1CC2=C(CC1(C)C)C(C)(C)CCC2)=N\NC(N)=S (stereo not given)	-6	9%	6%	3%
33	COc1ccc(OCC(=O)Nc2cc(OC)cc(OC)c2)cc1	2	0%	12%	12%
34	CCOC(=O)c1c(C)n(C)c2ccc(OC)c(NC(=O)CN3CCN(C(=O)c4ccco4)CC3)c12	-6	1%	0%	11%
35	O=C(O)CSCC(=O)NCc1ccc(Cl)cc1Cl	0	-5%	-11%	-1%
36	NS(=O)(=O)c1ccc(NC(=O)c2ccccc2C(=O)N2CCCCC2)cc1	1	3%	2%	-2%
37	CCOC(=O)CN1C(=O)N[C@@H](c2cccc(C(F)(F)F)c2)C(C(=O)OC)=C1C	0	.	.	.
38	CN(NS(=O)(=O)c1ccc(Cl)cc1)c1ncc(C(F)(F)F)cc1Cl	-3	4%	.	-1%
39	Oc1ccc2ccccc2c1CNc1cnc2ccccc2c1	-46*	.	?	-11%
40	Fc1ccc(C(c2ccc(F)cc2)N2CCN(C/C=C/c3ccccc3)CC2)cc1	-2&1	-2%&17%	-9%	40µM*

item	TRPV1 agonist	S-ASM inh	GALK inhibitor	a7 integrin act
31	-3	1%	-1%	.
32	19	-9%	0%	-57%[inhibitor]
33	1	4%	3%	-6%
34	0	3%	7%	13%
35	1	-1%	0%	0%
36	-2	2%	-2%	10%
37	.	3%	.	0%
38	15	-6%	-1%	-11%
39	2	107%[activator]	0%	-35%
40	2	-8%	-2%	.

# Additional entries follow:
item	compound	FBPA coupling cs	MLL CXXC-DNA inh	MBNL1-CUG inh	AT treatment
41	CCCC(C)NC(=O)c1cccc(Oc2ccccc2)c1 (stereo not given)	3	0%	.	15%
42	O=C(c1ccc(F)cc1)C1CCN(C(=O)c2ccccc2F)CC1	1	-9%	4%	-1%
43	Cc1cccc(-c2cccc(NC(=O)C3CCCN(Cc4cccnc4)C3)c2)c1 (stereo not given)	.	-4%	-12%	13%
44	CC(C)(O)c1ccccc1CC[C@@H](SCC1(CC(=O)O)CC1)c1cccc(/C=C/c2ccc3ccc(Cl)cc3n2)c1	.	.	.	.
45	Nc1nc2ccc(OC(F)(F)F)cc2s1	2&-2&0&1	-7%&-4%&12%	-9%&8%	-2%
46	Cc1nc(NCC2CCCO2)[nH]c(=O)c1CCC(C)C (stereo not given)	0	-2%	-11%	4%
47	N#Cc1cnn(-c2ccccc2)c1NC(=O)c1ccccc1F	.	.	.	0%
48	CCC(C)(C)NC(=O)C(c1ccc(C)o1)N(Cc1cccs1)C(=O)Cn1nnc2ccccc21 (stereo not given)	2	-2%	0%	1%
49	CCOC(=O)Nc1ccc(Cc2ccncc2)cc1	3	7%	-8%	1%
50	O=C(CN1C(=O)C2C3C=CC(C3)C2C1=O)Nc1nncs1 (stereo not given)	0	-6%	-3%	-3%

item	TRPV1 agonist	S-ASM inh	GALK inhibitor	a7 integrin act
41	-4	5%	1%	9%
42	20	-1%	1%	18%
43	8	-2%	-2%	-38%
44	.	110%[activator]	.	.
45	-1&-5	-3%	2%&-2%	.
46	0	-1%	-2%	-1%
47	2	4%	.	9%
48	12	-1%	2%	-36%
49	0	-1%	1%	6%
50	-2	2%	10%	-21%

# (list continues)
item	compound	FBPA coupling cs	MLL CXXC-DNA inh	MBNL1-CUG inh	AT treatment
51	CC[C@H](C)C(=O)O[C@H]1C[C@@H](C)C=C2C=C[C@H](C)[C@H](CC[C@@H]3C[C@@H](O)CC(=O)O3)[C@H]21	-47*	-9%&3%	-10%	9%&4%
52	COc1ccccc1NS(=O)(=O)c1cc(C(=O)N2CCCCCCC2)ccc1C	.	.	.	-25%
53	COc1cc2c(cc1O)CCC1C2CC[C@@]2(C)C1CC[C@@H]2O (stereo not given in full)	0	.	.	.
54	CCN(CC)CCCN1C(=O)C(O)=C(C(=O)c2cc3cccc(OC)c3o2)C1c1ccncc1 (stereo not given)	0	-5%	?	1%

item	TRPV1 agonist	S-ASM inh	GALK inhibitor	a7 integrin act
51	?	4%&-4%	-5%	.
52	5	-4%	.	19%
53	.	.	.	.
54	0	-1%	-3%	11%

# These rows are one share of the data; the hit share may differ from the screen's.
